GIRK2 act: GIRK2 channel activation; actives 0.05% (n = 63,000); HEK293-GIRK2 thallium flux, Thallos fluorescence; P48051; calls only for hits at 25 µM;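 active = among the strongest 0.2% of first-round signals and kept after retests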;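 also: first round at about 10 µM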
Target sequence (P48051 whole entry, looked up): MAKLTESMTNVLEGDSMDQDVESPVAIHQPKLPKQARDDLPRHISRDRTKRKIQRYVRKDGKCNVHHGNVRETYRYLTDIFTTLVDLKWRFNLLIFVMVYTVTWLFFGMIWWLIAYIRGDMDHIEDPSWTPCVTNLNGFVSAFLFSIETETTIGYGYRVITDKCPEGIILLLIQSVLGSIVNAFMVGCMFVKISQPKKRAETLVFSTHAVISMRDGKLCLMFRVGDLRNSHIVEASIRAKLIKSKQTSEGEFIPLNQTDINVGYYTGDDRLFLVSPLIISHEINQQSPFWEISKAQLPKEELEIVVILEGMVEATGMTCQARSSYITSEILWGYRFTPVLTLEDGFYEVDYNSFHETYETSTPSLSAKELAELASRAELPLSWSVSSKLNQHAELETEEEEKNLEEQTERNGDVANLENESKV
Calls only; i = inactive.

Structure | GIRK2 act
O=C(CSc1ccc2ccccc2n1)c1ccc2c(c1)OCO2 | i
O=C(Cn1cccc(S(=O)(=O)N2CCOCC2)c1=O)NCc1ccccc1Cl | i
O=C(N(Cc1ccsc1)CC(F)(F)F)C1(c2cccs2)CCCC1 | i
O=C(NCCCc1ccccc1)Nc1ccc(-n2ccnc2)nc1 | i
CC(C)(Oc1ccc(Cl)cc1)C(=O)N1CCC(N2CCCC2=O)CC1 | i
CC(C)NC(=O)CSc1ncc(-c2cccc([N+](=O)[O-])c2)n1-c1ccccc1 | i
O=C(NCc1cnn2ccccc12)c1cc(-c2ccccc2)n[nH]1 | i
O=C(CN1CCN(Cc2cnnn2-c2ccccc2Cl)CC1)Nc1ccccc1C(F)(F)F | i
COc1ccc(C(=O)NCc2cnn3ccccc23)cc1 | i
CSc1ccccc1C(=O)N(C(=O)N1CCCCC1)c1ccccc1 | i
CSc1ccc(CNC(=O)COc2nc(C)nc3ccccc23)cc1 | i
Cc1nc(N2CCN(C(=O)c3ccccc3)CC2)c2oc3ccccc3c2n1 | i
COc1ccc(CC(=O)Nc2cc(C)nn2-c2nc3ccccc3s2)cc1 | i
COc1ccc(-c2nnc(C3CCCN(C(=O)c4ccco4)C3)s2)cc1 (centres undefined) | i
O=C(NCc1noc(-c2ccccc2)n1)c1cc2ccccc2o1 | i
COc1ccc2c(c1)O/C(=C\c1cc(Br)cc3c1OCOC3)C2=O | i

3 structures already listed, sorted by length of the SMILES, high to low:
Structure | GIRK2 act
COc1ccc(-c2nnc(C3CCCN(C(=O)c4ccco4)C3)s2)cc1 (centres undefined) | i
CSc1ccccc1C(=O)N(C(=O)N1CCCCC1)c1ccccc1 | i
COc1ccc(C(=O)NCc2cnn3ccccc23)cc1 | i

Other records follow.
Structure | GIRK2 act
O=C(Cn1nnn(-c2ccc(NS(=O)(=O)c3ccccc3)cc2)c1=O)N1CCOCC1 | i
Cc1cc2ncn(CC(=O)NCc3cccs3)c2cc1C | i
O=C(Nc1ccc2c(c1)OCO2)N1CCN(c2nc3ccc([N+](=O)[O-])cc3s2)CC1 | i
Cc1onc(-c2ccccc2Cl)c1C(=O)Nc1c2c(nn1CC(=O)NCc1ccco1)CSC2 | i
O=C(CN1CCOCC1)Nc1ncc(Cc2ccc(Cl)cc2)s1 | i
CN[C@H]1CC[C@@H](c2ccc(Cl)c(Cl)c2)c2ccccc21 | i
Cc1cc(C)c(S(=O)(=O)N2CCCCC2)c(C)c1N(C)S(C)(=O)=O | i
O=C(Nc1cnc(N2CCCC2)nc1)c1ccc(Cl)cc1 | i
COc1ccc(S(=O)(=O)NC(C)C)cc1N(C)S(C)(=O)=O | i
COc1ccccc1CCNC(=O)C1(c2cccs2)CCCC1 | i
Cc1ccnc(NS(=O)(=O)c2ccc(NC(=O)CN(C)c3nc4c(F)cccc4s3)cc2)n1 | i
CCN(CC)c1ccc(N2C(=O)/C(=C/c3ccc(OC)cc3OC)SC2=S)cc1 | i
CCOC(=O)CCC(=O)NCC#CCOc1ccccc1OC | i
N#C/C(C(=O)N1CCOCC1)=C1/N=C(NC(=O)c2cccs2)c2ccccc21 | i
CC(C)c1ccc(OCC(=O)NCCC(O)C2CC2)cc1 (centres undefined) | i
O=c1cc(-c2ccccc2)ncn1CCNS(=O)(=O)c1cc(F)ccc1F | i
O=C(Nc1cccc2ccc(-n3ccnc3)nc12)C1COc2ccccc2O1 (centres undefined) | i
C[C@@H](CC[C@@H]1[C@@]2(C)CCCC(C)(C)C2CC[C@@]1(C)O)CC(=O)O (some centres undefined) | i
Cc1cc(C(=O)N2CC(c3nc(C4CC4)no3)C2)c(C)o1 | i
COc1ccc(C(=O)COc2ccc3c(=O)c(-c4ccccc4OC)c(C)oc3c2)cc1 | i
Cc1cn(-c2ccc(SCC(=O)NCc3ccc(C)c(C)c3)nn2)cn1 | i
CCOc1ccc(CNC(=O)c2nnn(-c3ccc(F)cc3)c2-c2ccncc2)cc1OCC | i
O=S(=O)(c1cccnc1)N1CCN(S(=O)(=O)C2CC2)CC1 | i
O=C(c1ccc2ncsc2c1)N1CC(c2nc(-c3ccc[nH]c3=O)no2)C1 | i

Of the compounds above, these have a CF3 group.
Structure | GIRK2 act
O=C(N(Cc1ccsc1)CC(F)(F)F)C1(c2cccs2)CCCC1 | i
O=C(CN1CCN(Cc2cnnn2-c2ccccc2Cl)CC1)Nc1ccccc1C(F)(F)F | i

Going on with the list:
Structure | GIRK2 act
CCn1cnc2c(-c3ccccc3)cn(CC(=O)NCc3ccc(SC)cc3)c2c1=O | i
COc1ccc(N2C(=O)C3N=NN(CC(=O)Nc4cccc(SC)c4)C3C2=O)cc1 (centres undefined) | i
O=C(c1ccc(Cl)cc1)N1CCC2(O)CCCCC2C1 (centres undefined) | i
CCc1cccc(C)c1NC(=O)Cn1nc(-c2cccs2)c2sc(N3CCCCC3)nc2c1=O | i
COc1cccc2cc(-c3nnc(NC(=O)c4cc(-c5ccco5)on4)o3)oc12 | i
C[C@]12CC[C@@H]3c4ccc(O)cc4CC[C@H]3[C@@H]1CC[C@@H]2O | i
COc1ccc(C)cc1NC(=O)c1ccc(-n2nc(C)cc2C)nn1 | i
COc1cccc(-c2csc3c(=O)[nH]c(N4CCCC(C(=O)NCc5ccccc5)C4)nc23)c1 (centres undefined) | i
Cc1ccc(CNC(=O)Cn2nc3n(CCC(=O)NC(C)C)c(=O)c4ccccc4n3c2=O)cc1 | i
N#Cc1nc(-c2ccc(S(=O)(=O)N3CCOCC3)cc2)oc1NCCc1ccccc1 | i
Cc1nn(C)cc1S(=O)(=O)N(Cc1ccccc1)c1ccccc1 | i
Cc1ccc(N2CCCC(C(=O)Nc3ccc(F)c(F)c3)C2)nn1 (centres undefined) | i
Cc1cc(C(O)CCNC(=O)C(=O)Nc2cccnc2)c(C)o1 (centres undefined) | i
O=C(c1c(F)cccc1F)N1CCC(c2cccs2)CC1 | i
C=CCNC(=O)N1CCN(Cc2ccsc2)CC1 | i
Cc1ccccc1Cn1c(-n2nc(C)c(C)c2C)nc2c1c(=O)n(CC(N)=O)c(=O)n2C | i
O=C(NC1CCN(C(=O)c2cn(-c3ccccc3)nn2)CC1)c1ccccc1F | i
COc1cccc(-c2csc(-n3nc(C)cc3NC(=O)Cc3ccc(F)cc3)n2)c1 | i
CN(CC(=O)N1CCC(Oc2ccc(Cl)cn2)CC1)S(C)(=O)=O | i
CCc1ccc(S(=O)(=O)c2cnc(N3CCC(NC(=O)OC(C)(C)C)CC3)nc2N)cc1 | i
Cc1cccc(-c2noc(-c3cccn4c(=O)n(CC(=O)Nc5c(C)cccc5C)nc34)n2)c1 | i
COc1cccc(CNC(=O)Cn2cccc(S(=O)(=O)N3CCCC3)c2=O)c1 | i
Cc1cccc(C(=O)NCC(O)(c2ccco2)C2CC2)c1 (centres undefined) | i
O=C(/C=C/c1ccccc1)NCCC(O)c1cccc2ccccc12 (centres undefined) | i
O=C(Nc1ccc(-c2ccn[nH]2)cc1)c1ccc[nH]c1=O | i
CSc1cccc(NC(=O)CSc2ncnc3nc(N4CCCC4)sc23)c1 | i
Cc1ccc(S(=O)(=O)NCc2ccc(C(O)c3cccs3)s2)cc1C (centres undefined) | i
O=C(O)C(Cc1ccc(O)cc1)c1ccccc1 (centres undefined) | i
Cc1noc(NS(=O)(=O)c2ccc(NC(=O)c3cc4n(n3)CCCO4)cc2)c1C | i
Cc1nc(SCc2ccc(F)cc2)[nH]c(=O)c1CC(=O)Nc1cccnc1 | i
COc1ccc(-c2coc3c4c(ccc3c2=O)OCN(CC2CCCO2)C4)cc1OC (centres undefined) | i
COc1ccc(C(=O)Nc2cc3c4c(c2)CCC(=O)N4CCC3)cc1OC | i
N#C/C(C(N)=O)=C1/SC(Cc2ccc(F)cc2)C(=O)N1c1ccc(Cl)cc1 (centres undefined) | i
COc1cccc2cc(C(=O)NCCC(O)c3cc(C)oc3C)oc12 (centres undefined) | i
COc1ccccc1CCC(=O)NC1CCN(Cc2noc(-c3ccccc3)n2)C1 (centres undefined) | i
Cc1cc(CN2CCC(CNC(=O)NCc3cccs3)CC2)c(C)o1 | i
O=C(Cn1cnc2ccccc21)N1CCN(Cc2csc(-c3ccccc3)n2)CC1 | i
CCCc1c(O)ccc(OC2OC(CO)C(O)C(O)C2O)c1CO (centres undefined) | i
COC(=O)Cn1c(=O)c2c(nc3n(-c4cc(C)ccc4OC)c(C)cn23)n(C)c1=O | i
CCOCC(=O)NCC(C)(O)c1cccs1 (centres undefined) | i

2 entries from above in another layout:
GIRK2 act	molecule
i	O=C(NCCCc1ccccc1)Nc1ccc(-n2ccnc2)nc1
i	CC(C)(Oc1ccc(Cl)cc1)C(=O)N1CCC(N2CCCC2=O)CC1

(continued)
smiles | GIRK2 act
COc1ccc(-c2noc(C3CCN(CC(=O)Nc4cccc(C(C)C)c4)CC3)n2)cc1 | i
COc1ccc(-c2noc(Cn3nc4ccc(-c5ccccc5)nn4c3=O)n2)cc1OC | i
Cc1cc(C(=O)N2CC(C(=O)Nc3cc(Cl)ccc3C#N)C2)no1 | i
Cc1ccc(-c2nn(C(C)(C)C)c3ncnc(N)c23)cc1 | i
CCC(=O)Nc1c(-c2ccc(OC)c(OC)c2)c(=O)c2ccccc2n1C | i
COc1ccc(Cl)cc1NC(=O)c1cc(=O)c(OCc2ccc(F)cc2)cn1C | i
Cc1c(C)n2c3c(=O)[nH]c(=O)n(C)c3nc2n1CC(=O)O | i
COc1cc(Nc2c(C(=O)N3CCCCC3C)cnc3nc(C)ccc23)cc(OC)c1OC (centres undefined) | i
COc1ccccc1N1CCN(c2nc3c(-c4ccc(C)cc4)csc3c(=O)[nH]2)CC1 | i
COc1ccc(OCCC(=O)N2CCC(Cc3ccccc3)CC2)cc1 | i
COC(=O)c1cccc(NC(=O)Cn2nc3c(N4CCC(C)CC4)nccn3c2=O)c1 | i
O=C(c1ccno1)N1CCC2(CCc3ccccc3O2)CC1 | i
CS(=O)(=O)c1ccc2nc(N(Cc3ccccc3)C(=O)CCSc3ccccc3)sc2c1 | i
O=C1CCSCC(C(=O)Nc2nc3ccc(Cl)cc3s2)N1 (centres undefined) | i
O=C(NC1CCCC1)c1nnn(-c2ccc(NC(=O)C3CC=CCC3)cc2)n1 (centres undefined) | i
CCc1ccc(NC(=O)C2CCN(c3c(C#N)cnc4ccccc34)CC2)cc1 | i
COc1cccc(Cn2cnc3c(-c4cccc(Cl)c4)csc3c2=O)c1 | i
Cc1noc(C2CCCN2C(=O)c2ccc3ccccc3n2)n1 (centres undefined) | i
CCOc1cc(S(=O)(=O)NCCCn2ccnc2)ccc1F | i
Cc1ccc(Oc2cccc(C(=O)Nc3cnc(-n4nc(C)c(C)c4C)nc3)c2)nn1 | i
CS(=O)(=O)c1ccc(NC(=O)c2nnn(-c3ccc(OC(F)(F)F)cc3)n2)cc1 | i
O=C(CN1N=NC2C(=O)N(c3ccc(F)cc3)C(=O)C21)Nc1ccc2c(c1)OCCO2 (centres undefined) | i
O=C(c1cc(F)ccc1F)N1CCN(Cc2nncn2C2CCCCC2)CC1 | i
Cc1ccc(C)c(OCC(=O)NCc2sc(-c3cccs3)nc2C)c1 | i
O=C(CCSc1ccccc1)NCC1CCN(C(=O)c2ccoc2)CC1 | i
COCCc1noc(C2CCN(C(=O)C3CCCN(C)C3)CC2)n1 (centres undefined) | i
Cc1ccc(-n2nnc3c(=O)n(CC(=O)N4CCc5ccccc54)cnc32)cc1C | i
O=C(Nc1ccccn1)c1c[nH]c2ccc(F)cc2c1=O | i
COc1cccc(C(=O)Nc2cc(C)on2)c1OC | i
CCCCn1c(C(=O)NCC(O)CO)cc2c(=O)n(C)c(=O)n(C)c21 (centres undefined) | i
O=C(Nc1ccccc1)Nc1cnc(N2CCOCC2)nc1 | i
O=C(Cc1csc(NC(=O)c2ccc(=O)[nH]c2)n1)Nc1ccc(-n2cnnn2)cc1 | i
COC(=O)CC1(C(=O)OC)SC(=Nc2ccccc2)NN1c1nc2sc(C)c(C)c2c(=O)[nH]1 (centres undefined) | i
CC(C)c1ccc(OCC(=O)N2CCN(S(=O)(=O)C3CC3)CC2)cc1 | i
COc1ccc(-c2cnc(N)nc2-c2ccc(OCc3ccccc3C)cc2O)cc1OC | i
O=C(Nc1cccc(N2CCCS2(=O)=O)c1)c1ccc([N+](=O)[O-])cc1 | i
O=C(NCCN1CCN(c2ccc(F)cc2)CC1)C(=O)Nc1ccc(F)cc1 | i
CC(C)N(CCNc1ccc(S(=O)(=O)Cc2ccc(Cl)cc2)nn1)Cc1ccco1 | i
CC(=O)c1cccc(NC(=O)CSc2nc3c(-c4ccccc4)c[nH]c3c(=O)n2C(C)C)c1 | i
O=C(Nc1ccccc1-c1ccccc1)c1cc2n(n1)CCCO2 | i

Compounds listed so far that have a nitro group on carbon:
smiles | GIRK2 act
CC(C)NC(=O)CSc1ncc(-c2cccc([N+](=O)[O-])c2)n1-c1ccccc1 | i
O=C(Nc1ccc2c(c1)OCO2)N1CCN(c2nc3ccc([N+](=O)[O-])cc3s2)CC1 | i
O=C(Nc1cccc(N2CCCS2(=O)=O)c1)c1ccc([N+](=O)[O-])cc1 | i

Additional results.
smiles | GIRK2 act
Cc1cc(C(O)CCNC(=O)c2cccn(C)c2=O)c(C)o1 (centres undefined) | i
O=C(Cn1c(/C=C/c2ccccc2)nc2ccccc21)NCC1CCCO1 (centres undefined) | i
Cc1nc(-c2cccs2)sc1C(=O)N1CCN(c2ccc(-c3cccnc3)nn2)CC1 | i
COc1ccc(Cl)cc1C(=O)N1CC(c2nc3ccccc3[nH]2)C1 | i
CS(=O)(=O)N1CCN(C(=O)Cc2csc(NC(=O)c3ccc(=O)[nH]c3)n2)CC1 | i
COc1cccc(C(=O)NC2CC(=O)N(c3ccccc3)C2)c1OC (centres undefined) | i
COc1ccc(Cl)cc1C(=O)N1CCCC(c2nnc(-c3ccc4c(c3)OCO4)o2)C1 (centres undefined) | i
CCCCC[C@H](O)/C=C/[C@H]1C2CC(CO2)[C@@H]1CCCCCCC(=O)O (some centres undefined) | i

Screening results deposited in PubChem by Vanderbilt University.

Some of the compounds tested; the hit share may differ from the screen's.
